# NPYLR7 agonist = agonists of mosquito NPYLR7 receptor, primary screen, cell-based, Aedes aegypti, calcium fluorescence, mosquito biting behavior | Aedes aegypti neuropeptide Y-like receptor 7 (NPYLR7) | HEK293T NPYLR7/Galpha15, GCaMP6s calcium fluorescence | activation, % at 10 µM | hit rate 0.15% among 270,000 | AID 1259423, 2018; in the data active = activation above about 40%;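 note: 0% = vehicle and 100% = reference agonist at the receptor; some compounds past the cut are filed as inactive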
# NPYLR7 agonist max-min = also measured in NPYLR7 agonist; calls as there; activation, %; measured here: Max-Min RFU normalised activation; some inactives read as strong as hits;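 span of the calcium signal over five minutes; 0% = vehicle and 100% = native peptide agonist; compound fluorescence can raise it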
# Active calls of the source: *; & = joins results of further samples.
SMILES	NPYLR7 agonist	NPYLR7 agonist max-min
Cc1ccc(S(=O)(=O)c2nnn3c2nc(N2CCc4ccccc42)c2sccc23)cc1	3	5
CCn1c(C(C)NC(=O)COc2ccccc2C#N)nc2ccccc21 (stereo not drawn)	-1	6
COc1ccc(C(=O)N2CCC(Cc3ccc(-n4cccc4)cc3)CC2)c(OC)c1	2	11
COC(=O)c1c(N)n[nH]c1C	-6	-4
COc1ccccc1CCNC(=O)CSc1ccc(-c2ccc(-n3ccnc3)cc2)nn1	-8	-10
Cc1nnc([S+]2CCCC2)s1	0	-1
CC1=C(C(=O)OC(C)(C)C)C(c2ccc(C(C)(C)C)cc2)NC(=S)N1 (stereo not drawn)	-5	-5
CCCN(Cc1c(CC)nn(-c2ccc(F)cc2)c1N1CCN(C(C)C)CC1)C(=O)c1ccc2c(c1)OCO2	6	18
CN(C)C(=O)N=NC(=O)N(C)C	-6	-12
O=C(Nc1ccc(N2CCOCC2)cc1)c1ccc2c(c1)OCO2	8	5

SMILES	NPYLR7 agonist	NPYLR7 agonist max-min
Cc1cc(S(=O)(=O)N(C)C)cc(NC(=O)C(C)(C)C#N)c1C	10	6
O=C(NCCC1=CCCCC1)C1CC(=O)N(C2CCCCCC2)C1 (stereo not drawn)	20	6
COc1ccc(CCNC(=O)N2CCC3(CC2)NC(=O)Cc2cc(OC)c(OC)cc23)cc1OC	5	11
O=S(=O)(Nc1ccc(Oc2ccccc2)cc1)c1ccc(Cl)s1	9	10
CC(=C1C2C=CC1C1C(=O)NC(=O)C21)c1ccccc1 (stereo not drawn)	-3	-2
CC(C)(C)c1ccc(/C=N\NC(=O)CSc2nnc(-c3ccc(Cl)cc3)n2-c2ccccc2)cc1	-6	-8
CC1(C)CC(C)(c2ccc(O)cc2)c2ccccc2O1 (stereo not drawn)	-10	-9
Cc1nc(Nc2nc3ccccc3s2)nc2c1CCC2	6	5
CCN(CC)c1cc(C(C)(C)C)nc(SCc2ccc(C(=O)NCC(C)C)cc2)n1	-7	6
CC(C)Cc1ccc(C(C)NC(=O)c2ccc(S(C)(=O)=O)cc2)cc1 (stereo not drawn)	1	2

# Record cards, from the list above.
# `Cc1cc(S(=O)(=O)N(C)C)cc(NC(=O)C(C)(C)C#N)c1C` is entered as NPYLR7 agonist = 10; NPYLR7 agonist max-min = 6
# `CC1(C)CC(C)(c2ccc(O)cc2)c2ccccc2O1` (stereo not drawn) is entered as NPYLR7 agonist = -10; NPYLR7 agonist max-min = -9

# (further entries)
SMILES	NPYLR7 agonist	NPYLR7 agonist max-min
CCOC(=O)c1nn(Cc2ccccc2)c2c1CN(C(=O)c1cc3ncccn3n1)CC2	19	14
Cc1ccc2c(c1)CCN1C(=O)CN(C(=O)c3c(F)c(F)cc(F)c3F)CC21 (stereo not drawn)	24	22
COc1cc(NC(=O)Cn2nc(C)c([N+](=O)[O-])c2C)c(OC)cc1Cl	-3	-9
COc1ccccc1C(=O)Oc1ccc(I)cc1	-6	-7
CC1(C)CC(NS(=O)(=O)c2ccc(Cl)cc2)CC(C)(C)N1	3	-1
CCCC(C#N)NC(=O)c1cccc(-c2csc(C)n2)c1 (stereo not drawn)	1	0
COc1cccc(-c2cn[nH]c2C2CCN(Cc3ccncc3)CC2)c1	14	9
CN(Cc1nccn1Cc1ccccc1)C(=O)c1ccc(=O)n(C)c1	5	4
O=C(c1noc2c1CCCCC2)N1CCOCC1	-1	1
O=C(c1ccc2c(c1)OCO2)C1CCCN(S(=O)(=O)c2cccc3nsnc23)C1 (stereo not drawn)	2	-2

SMILES	NPYLR7 agonist	NPYLR7 agonist max-min
COc1ccc2nc(N(Cc3ccccc3)C(=O)c3ccno3)sc2c1	-3	-8
CC(CNC(=S)NC(=O)C1CCCC1)NC(=S)NC(=O)C1CCCC1 (stereo not drawn)	-8	-15
CC(C)c1ccc(NC(=O)CCc2csc(NC(=O)c3ccc[nH]c3=O)n2)cc1	-9	-18
O=[N+]([O-])c1ccc2c(c1)S(=O)(=O)N=C2N1CCCCC1	-9	-18
O=C(NCc1ccncc1)c1coc(CN(Cc2cccc(F)c2)CC2CC2)n1	11	9
COc1ccccc1C(=O)Nc1cccc(NC(=O)C(C)n2cccn2)c1 (stereo not drawn)	2	0
COc1ccc(-c2cn(-c3ccc(OC)cc3)c3[n+]2-c2ccccc2CC3)cc1	-3	-11
c1ncn(-c2ccc(NCC3CCOCC3)cc2)n1	3	7
C=CCn1c(=O)c2c(nc3n(-c4ccc(Cl)cc4)c(C)cn23)n(C)c1=O	12	3
CCOC(=O)c1cc(-c2cccc(NC(=O)c3cc(C)oc3C)c2)n(-c2cccc(C)c2)n1	22	15

SMILES	NPYLR7 agonist	NPYLR7 agonist max-min
COc1ccc(CC(=O)Nc2ccc(Nc3ccc(-n4nc(C)c(C)c4C)nn3)cc2)cc1	-2	-6
Cc1cc(C(=O)NC[C@@H]2OC[C@@]3(C)[C@H]4CC[C@@H](O)[C@@H](CC(=O)N5CCOCC5)[C@]4(C)CC[C@H]3O2)no1	-11	-17
CCOP(=O)(Cc1ccc(NC(=O)c2c(C)cc(C)c3c2CC(C)(C)C3=O)cc1)OCC	-17	-26
Cc1c(NC(=O)C(c2ccccc2)c2ccccc2)c(=O)n(-c2ccccc2)n1C	18	11
CC(C)(Oc1ccc(CCNC(=O)c2ccc(Cl)cc2)cc1)C(=O)N1CCCC1c1nnc2c(C(F)(F)F)cccn12 (stereo not drawn)	-5	-11
OCc1cc(Br)cc(Br)c1OCc1ccccc1F	7	8
COc1ccc(-c2cnc(-c3cccnc3)o2)cc1	1	0
COc1ccc(-c2cc(C(=O)N3CCN(Cc4ccc5c(c4)OCO5)CC3)n3nc(-c4ccccc4)cc3n2)cc1	5	12
CN(CC(O)CN1CCOCC1)CC1CC(c2ccc(Cl)cc2)=NO1 (stereo not drawn)	-1	3
CN(C)c1ccnc2sc3c(N(CCO)CCO)ncnc3c12	-5	-4

SMILES	NPYLR7 agonist	NPYLR7 agonist max-min
CN1c2ccccc2C(=O)NC1c1ccccc1OCc1ccccc1 (stereo not drawn)	7	5
Cc1c(C)n2c3c(=O)n(CC=Cc4ccccc4)c(=O)n(C)c3nc2n1Cc1ccco1	2	0
OC1(c2ccc(F)cc2)CSC(=Nc2cccnc2)N1Cc1ccco1 (stereo not drawn)	-1	-6
CCCC1(CCC)NC(=O)N(CC(=O)NC2CCCCCC2)C1=O	0	3
COc1cccc(CO[C@]2(C(=O)NCCN(C)C)CC(OCc3cccc(C(F)(F)F)c3)[C@H](O)[C@H](O)C2)c1 (stereo partly drawn)	9	6
COc1ccc(N2CCN(Cc3nc4c([nH]3)c(=O)n(C)c(=O)n4C)CC2)cc1	1	24
COc1ccc(NC(=O)CCC2CCCN(C(=O)C3=CC(=O)CC(C)(C)O3)C2)cc1Cl (stereo not drawn)	5	4
COCCN(CC1CCCN(C2Cc3ccccc3C2)C1)C(=O)CSC (stereo not drawn)	1	0
COCC(=O)Nc1ccc(-c2c(C3CC3)nn(-c3cc(C)ccc3C)c2OC(C)=O)cc1	11	17
c1ccc(-n2ncc3c(Nc4ccc5c(c4)OCO5)nc(NCC4CCCO4)nc32)cc1 (stereo not drawn)	1	-1

# Laid out differently: two of the compounds above
# Below each compound – NPYLR7 agonist, NPYLR7 agonist max-min
- Cc1ccc2c(c1)CCN1C(=O)CN(C(=O)c3c(F)c(F)cc(F)c3F)CC21 (stereo not drawn)
 : 24, 22
- COc1cc(NC(=O)Cn2nc(C)c([N+](=O)[O-])c2C)c(OC)cc1Cl
 : -3, -9

# Further results follow.
SMILES	NPYLR7 agonist	NPYLR7 agonist max-min
CC1c2[nH]c3ccccc3c2CCN1C(=O)CCCc1nc(C(C)(C)C)no1 (stereo not drawn)	9	6
CCc1nc2n(n1)C(=O)C(C(c1ccc(OC)cc1)N1CCC(C(N)=O)CC1)S2 (stereo not drawn)	-8	-11
COc1cc(-c2cccc(CN3CCOCC3)c2)ncn1	0	-1
CC(C)c1ccc(-n2nc(C(=O)N(C)C3CCCCC3)c(=O)n(Cc3ccccc3F)c2=O)cc1	-2	6
CS(=O)(=O)c1ccccc1C(=O)NCc1nnnn1-c1ccc(Cl)cc1	0	-3
O=C(c1ccc(Cn2ccnc2)o1)N1CCCC(CCc2ccccc2F)C1 (stereo not drawn)	8	2
O=C(O)c1ccc(N2CCN(C(=O)c3ccc4oc(-c5cccnc5)nc4c3)CC2)c([N+](=O)[O-])c1	-4	-9
N#CCCNC(=O)c1ccc(-c2cc(-c3ccc(Cl)cc3Cl)[nH]n2)cc1	-3	-13
CCn1cc(C(=O)N2CCN(C(=O)COc3ccccc3)CC2)c2nn(-c3ccccc3)c(=O)c-2c1	0	-2
Cc1nn(C)c(N2CCOCC2)c1CN(C)Cc1[nH]c2ccccc2c1C	5	3

SMILES	NPYLR7 agonist	NPYLR7 agonist max-min
CCNC(=O)CN1CCN(Cc2cnc3c(-c4ccccc4)cnn3c2)CC1	20	8
CC(C)c1nc(CN(C)C(=O)COc2cccnc2)cs1	3	0
CC(Cn1cncn1)NS(=O)(=O)c1ccc2c(c1)N(C)CCC2 (stereo not drawn)	3	9
CCn1ccc(=O)[nH]c1=O	0	10
CNc1nc2cnc(Nc3ccccc3Cl)cc2n1-c1cccc(C(F)(F)F)c1	46	33
CC1=NC2=C(C(=O)CCC2)C(c2cccc(Cl)c2)C1C(=O)OC1CCCCC1 (stereo not drawn)	-8	-6
CC(C)(C)c1ccc(C(=O)N2CCC2(C)C(=O)Nc2cccc3c2CCCC3)cc1 (stereo not drawn)	-4	-2
COc1ccc(CNC(=O)c2cn(Cc3ccc(OC(C)=O)cc3)c(=O)s2)cc1	11	8
O=C(c1ccc(CSc2nnc(-c3ccncc3)n2-c2cccc(C(F)(F)F)c2)cc1)N1CCN(c2ccccc2F)CC1	16	12
O=C(CSc1nc2ccccc2s1)N/N=C\c1ccco1	11	9

# 4 compounds already listed, sorted by SMILES length, smallest number first:
SMILES	NPYLR7 agonist	NPYLR7 agonist max-min
CCNC(=O)CN1CCN(Cc2cnc3c(-c4ccccc4)cnn3c2)CC1	20	8
COc1ccc(CNC(=O)c2cn(Cc3ccc(OC(C)=O)cc3)c(=O)s2)cc1	11	8
CC1=NC2=C(C(=O)CCC2)C(c2cccc(Cl)c2)C1C(=O)OC1CCCCC1 (stereo not drawn)	-8	-6
CC(C)(C)c1ccc(C(=O)N2CCC2(C)C(=O)Nc2cccc3c2CCCC3)cc1 (stereo not drawn)	-4	-2

# (further entries)
SMILES	NPYLR7 agonist	NPYLR7 agonist max-min
O=C(CCN1CCN(S(=O)(=O)N2CCCC2)CC1)Nc1nccs1	0	-4
CN(C)C=CC(=O)c1cc2ccccc2oc1=O	-1	-1
CN(C)CCCOc1ccc(-c2nnc3ccc(-c4ccc(C(=O)N5CCOCC5)cc4)cn23)cc1	8	-4
O=C1CNC(=O)N1CCN1CCCC1C1CCCc2ccccc21 (stereo not drawn)	4	-5
Cn1c(=O)n(CCN2CCOCC2)c(=O)c2c1nc1n2CCCN1Cc1ccccc1	-1	-4
Cc1ccc2oc(=O)cc(-c3sc4nc(C)cc(C)c4c3N)c2c1	-5	-6
COC(=O)Nc1c(C)nc2n(C)c3ccccc3n12	1	0
Cc1cccc2oc(=O)n(C3CCN(C(=O)c4ccc5c(c4)OCO5)CC3)c12	29	26
O=C(C1CC2(CCNCC2)CN1)N1CCC(c2nc3ccccc3[nH]2)CC1 (stereo not drawn)	27	9
CCCSc1n[nH]c(=S)s1	-4	-3

SMILES	NPYLR7 agonist	NPYLR7 agonist max-min
Cc1ccc(-c2ccnc(NC(C)Cn3cncn3)n2)c(C)n1 (stereo not drawn)	-1	5
CN(C)CCCOc1ccc(-c2nnc3ccc(-c4cccc(O)c4)cn23)cc1	5	-7
CCNC(=O)CN(c1ccc(C)cc1)S(=O)(=O)c1ccc(SC)cc1	4	5
COc1cc2c(cc1OC)C1CN(C(=S)Nc3ccc(F)c(C)c3)CC(=O)N1CC2 (stereo not drawn)	26	9
Cc1cc(NC(=O)CSc2nnc(C(C)C)c3cnn(-c4ccc(C)c(C)c4)c23)no1	17	11
CCOC(=O)CC1CCCCN1Cc1cc(-c2ccccn2)no1 (stereo not drawn)	8	8
CCOC(=O)CCC(=O)N(Cc1ccc(OS(=O)(=O)c2cccc(C(F)(F)F)c2)cc1)CC(C)C	-12	-2
Nc1nc(SCC(=O)c2c(N)n(C3CC3)c(=O)[nH]c2=O)n[nH]1	-1	11
COc1nc(-c2ccccc2C)n(-c2ccc(NC(=O)c3ccc([N+](=O)[O-])cc3)cc2)n1	6	5
Cc1ccc(CNC(=O)c2cc(C)[nH]n2)c(C)c1	6	672

SMILES	NPYLR7 agonist	NPYLR7 agonist max-min
COc1ccc(OC)c(-c2nc3cc(C)cc(C)n3c2Nc2c(C)cccc2C)c1	15&8	14&6
CC1=C(C(=O)NCCOc2cccc3ccc(C)nc23)C(C)NC(=O)N1 (stereo not drawn)	3	-16
CNC(=O)NC(=O)CSc1nc2cc(-c3ccc(C)cc3)sc2c(=O)n1C1CC1	9	7
CCN=C1NS(=O)(=O)c2ccccc21	-3	-5
Cc1nn(C(C)C(=O)Nc2ccc(F)c(Cl)c2)c(C)c1[N+](=O)[O-] (stereo not drawn)	-7	-7
Cc1nc(C)c(C(=O)O)s1	5	11
O=C(CN1CN(c2ccccc2)C2(CCN(C(=O)c3cccs3)CC2)C1=O)NCc1ccccc1	12	13
C=CCCC(O)CN(CC(=O)N1CCc2sccc2C1COc1ccc(F)cc1)CC1CC1 (stereo not drawn)	5	5
CC(=O)c1ccccc1NC(=O)c1oc2ccc(Br)cc2c1C	1	4
Cc1ccc2nc(Nc3ccccc3)c(C=NO)c(=O)n2c1	-8	-15

SMILES	NPYLR7 agonist	NPYLR7 agonist max-min
CCCc1nc(N2CCCN(C(=O)Nc3ccc(C)cc3)CC2)c2c(-c3ccccc3)noc2n1	14	5
CC(c1ccccc1)N(Cc1cc(NC(=O)C2CCC2)ccc1N(C)C)C(=O)c1ccc(F)cc1 (stereo not drawn)	15	13
CSCc1noc(-c2nc3c([nH]2)CC(c2ccc(F)cc2)CNC3=O)n1 (stereo not drawn)	2	2
CS(=O)(=O)CCSCC(=O)NC1CCCC1	4	4

# Screens from PubChem BioAssay.

# A portion of the library; the hit share may differ from the screen's.
